From PubChem
Vaccinia Venus: vaccinia inhibition (Venus reporter); AID 720580; 0.46% of 330,000 active; Vaccinia virus Venus reporter expression, fluorescence; Potency, µM (doses to about 36.5 µM), for inactives: top-dose activity change, negative = inhibition, actives largely listed as inhibitors; active means well fitted inhibition curve with a large enough effect; inconclusive means small, poorly fitted or top-dose-only effect; inactive means no such curve, though single readings can be large or run the other way; tested in A549 cells; further: nearly all actives have a fitted effect of over 30% in size; inactives centre near -10
VACV mCherry inh: inhibitors of vaccinia virus infection (mCherry reporter signal); Vaccinia virus mCherry reporter infection, fluorescence; about a quarter of the inactives have no number; Potency, µM (highest dose often 36.5 µM), for the others: at the highest dose activity change, negative = inhibition, hits mostly inhibitors; 0.63% of 310,000 active; AID 720579; active = well fitted inhibition curve with a large enough effect; inconclusive = small, poorly fitted or top-dose-only effect; inactive = no such curve, though single readings can be large or run the other way; tested in A549 cells; further: nearly all actives have a fitted effect of over 35% in size; inactives centre near -10
The depositor's hits bear a star; i = inactive; ? = inconclusive; · = not tested or not shown; [ ] = another dose, or the depositor's remark. On the % scale 0 is the no-effect control and ±100 the full control effect; potency means the concentration at half of the fitted maximal effect. Compounds were not picked by outcome; 0.82% or so of the library scored in one or more.

| Molecule | Vaccinia Venus | VACV mCherry inh |
| --- | --- | --- |
| Cn1nc(-c2ccccc2)c(COC(=O)c2cccc(Cl)c2)c1S(=O)(=O)c1ccccc1 | -15% | · |
| Cn1cnnc1SCc1ccc(-c2ccc(Br)cc2)o1 | -23% | · |
| C=CCn1c(CSc2nc3ccccc3s2)nnc1SCC(=O)NCc1cccnc1 | -6% | -16% |
| COc1ccc(C(CC(=O)O)c2ccc3c(c2)OCO3)cc1 (stereo unspecified) | -8% | -17% |
| CC(C)N(Cc1cn[nH]c1-c1ccc(-c2ccccc2)cc1)Cc1nccn1C | -27% | ? |
| CCOC(=O)C1=CC[C@H]2c3c(c4ccccc4n3C)C[C@H]1N2C | -20% | -8% |
| Clc1cccc(Cn2ncc3ccccc32)c1 | -5% | -1% |
| O=[N+]([O-])c1ccc(COc2cccc(CN3CCCC3)c2)cc1 | -8% | ? |
| O=C(c1c(F)c(F)c(F)c(F)c1F)N1CCc2ccccc21 | ? | -8% |
| O=C(N/N=C\c1cc(Br)c(Br)o1)c1cncc(Br)c1 | -11% | -22% |
| CCOC(=O)c1c(/N=C/C2C(=O)CC(C)(C)CC2=O)sc(C)c1C | -14% | i |
| CCOc1ccc2cc(-c3nnc(Nc4ccc(C)cc4)s3)c(=O)oc2c1 | 2% | -4% |
| CC1CCCC(N2CCN(C(=O)c3cccc(F)c3)CC2)C1 (stereo unspecified) | -5% | i |
| O=C(Nc1ccccc1)n1cc(-c2ccccn2)c(N2CCOCC2)n1 | -24% | -12% |
| CC(C)NC(=O)C1CCN(C2CCN(C(=O)/C=C/c3cccs3)CC2)CC1 | -6% | i |
| O=Cc1ccc(O)c2ncccc12 | ? | ? |
| COc1ccc(NC(=O)CN2C(=O)CCn3nc(-c4cccn4C)cc32)cc1 | -2% | -11% |
| CC(C)c1ccc(S(=O)(=O)N2CCN(CC(=O)Nc3ccc4c(c3)OCO4)CC2)cc1 | ? | · |
| Cc1ccccc1OCc1nc2c3cnn(-c4ccccc4Br)c3ncn2n1 | -26% | -21% |
| COCc1cc(C)nc(SCC(=O)Nc2cccc(C)c2C)c1C#N | -15% | i |
| COc1cc(C(=O)N/N=c2/sc3ccccc3n2C)cc(OC)c1OC | -1% | -14% |
| O=C(c1ccco1)N1CCN(C(=O)c2ccccc2OC(=O)C23CC4CC(CC(C4)C2)C3)CC1 | -12% | -13% |
| C=CCn1c(O)c(C(C)=Nc2cccc(C(F)(F)F)c2)c(=O)[nH]c1=O | -12% | -17% |
| CC(CN1CCCCC1)OC(=O)c1ccc(Cl)cc1Cl (stereo unspecified) | -20% | · |
| Cc1ccc(C)c(OC(=O)c2cncc(Br)c2)c1 | -12% | i |
| COc1ccc(C(=O)c2c3ccc(OC)cc3[n+]([O-])n2Cc2ccc(C(N)=O)cc2)cc1 | -22% | -22% |
| CC1Cc2ccccc2N1S(=O)(=O)c1cccs1 (stereo unspecified) | -4% | -14% |
| O=C(c1ccccc1NS(=O)(=O)c1cccc2cccnc12)N1CCOCC1 | -11% | i |
| O=C(CNC(=O)C1CCCCC1)OCC(=O)c1ccc(F)cc1 | 8% | -17% |
| Cc1ccc(S(N)(=O)=O)cc1NC(=O)C1CC2CCC1C2 (stereo unspecified) | -3% | -13% |
| Cc1cc(NC(=O)CSc2nnc(Nc3ccccc3)s2)no1 | -5% | -13% |
| CCOC(=O)C(C)On1c(-c2cccc(Cl)c2)nc2ccc([N+](=O)[O-])cc21 (stereo unspecified) | -27% | -17%[1.46 µM] |
| CCCCN(C)c1c(C)nc2ccc(C(=O)NCc3cccs3)cn12 | -7% | 24% |
| C[C@@]12C(=O)N(c3ccc(Cl)cc3)C(=O)N1[C@@H]1c3ccccc3OC[C@@H]1[C@H]2c1ccccc1 | -11% | i |
| C=CCc1c(C)[nH]c2c(OC)cccc2c1=S | -12% | -5% |
| Cc1ccc(Nc2nnc(SCC3CCCCO3)s2)cc1 (stereo unspecified) | -27% | ? |
| COC(=O)/C(=C\c1ccc([N+](=O)[O-])cc1)NC(=O)c1ccccc1 | -6% | -9% |
| COc1cccc(C(=O)c2ccccc2NC(C)=O)c1 | 4% | -15% |
| CCN(CC)C(=O)C1CCCN(Cc2nc(-c3cccs3)no2)C1 (stereo unspecified) | 25% | -12% |
| O=C(CCN1CCCCCC1)Nc1cccc(Cl)c1 | -11% | -8% |
| O=Cc1cn(CCC(=O)O)nc1-c1cccc(Br)c1 | -10% | -17% |
| CCOC(=O)N1CCC(N2Cc3cccc(C(=O)NC(C)c4ccc5c(c4)OCCO5)c3C2=O)CC1 (stereo unspecified) | -12% | -10% |
| CCOCCn1ccc2c(OCC(=O)NCc3ccccc3)cccc2c1=O | -5% | i |
| COC(=O)C(=C/C(C)=C/c1cccs1)C(=O)OC | -14% | -17% |
| CCOc1cc(C(=S)N2CCCC2)ccc1O | -6% | i |
| COc1ccc(-c2cc(C(=O)N/N=C/c3ccc(OC)c(COCC(F)(F)C(F)F)c3)c3ccccc3n2)c(OC)c1 | -9% | -14% |
| CN(C(=O)c1ccc2c(c1)OCO2)C1(C)CCS(=O)(=O)C1 (stereo unspecified) | -2% | -5% |
| O=[N+]([O-])c1ccc(/C=C/c2cc(Cl)nc3ccccc23)cc1 | -17% | -24% |
| O=c1[nH][nH]c(-c2ccccc2)c1-c1ccccc1 | -5% | -23% |
| CC(C)CCNC(=O)c1ccc2nc(Cc3ccccc3)oc2c1 | -7% | -13% |
| O=C(Nc1nnc(COc2ccccc2)s1)Nc1ccccc1F | -8% | i |
| C=CCn1c(SCc2nc3cc(C(=O)OC)ccc3c(=O)[nH]2)nc2sc(CC)cc2c1=O | -4% | -4% |
| COc1cc(SC#N)ccc1N=Cc1c(C)[nH]n(-c2ccc(C)cc2)c1=O | -25% | ? |
| COc1cccc(C(=O)N2CCCc3ccccc32)c1OC | -16% | i |
| Cc1cc(C)cc(N(C(=O)c2ccco2)C(C(=O)NC2CCCC2)c2ccncc2)c1 (stereo unspecified) | -17% | -3% |
| COc1cc2cnc(-c3ccccc3)c(-c3ccc(C(F)(F)F)cc3)c2cc1OC | -9% | -4% |
| CC(=O)NC(c1cccc(F)c1)c1nc(-c2ccc3ccccc3c2)cs1 (stereo unspecified) | -8% | -6% |
| Cc1ccc(-n2nc(C(=O)O)nc2-c2ccccc2)cc1 | -4% | · |
| COc1ccc(C#CC2=CC(=O)CC(C)(C)C2)cc1 | ? | -16% |
| O=C(CCN1CCN(c2ccccc2)CC1)Nc1ccc(OCc2ccccc2)cc1 | -4% | -1% |

(cont.)
| Molecule | Vaccinia Venus | VACV mCherry inh |
| --- | --- | --- |
| CC1(C(=O)NCc2ccccc2)CCC(=O)N1CC(F)(F)F (stereo unspecified) | 4% | 7% |
| Clc1ccc(C2=NNC(=NCc3ccc4c(c3)OCO4)SC2)cc1 | -6% | -25% |
| CCC(=O)c1ccc(OCC(O)CN(C)C2CCCCC2)cc1 (stereo unspecified) | -13% | · |
| CCCn1c(=O)c(C(=O)Nc2ncccc2O)c(O)c2ccccc21 | -13% | i |
| CCC1CCCCN1C(=S)NC(=O)c1cccc([N+](=O)[O-])c1 (stereo unspecified) | -4% | ? |
| O=C(c1ccco1)N1CCN(C(=O)C2c3ccccc3Oc3ccccc32)CC1 | -12% | ? |
| CCN1C(=O)NC(c2cccnc2)C(C(=O)OC)=C1C (stereo unspecified) | -3% | -15% |
| O=C(Nc1ccccc1N1CCOCC1)c1ccco1 | -8% | i |
| Cc1ccc(N=C(/N=C(\N)N[N+](=O)[O-])Nc2ccc(C)cc2)cc1 | -1% | i |
| O=C(CN1CCN(c2ccc(F)cc2)CC1)Nc1cc(C(F)(F)F)ccc1Cl | 7% | · |
| O=C(NC1CCCC1)C(c1ccccc1F)N(C(=O)c1csnn1)c1ccccc1 (stereo unspecified) | -3% | -1% |
| COCCCNC(=S)N(CCCO)Cc1cc2cc3c(cc2[nH]c1=O)OCCO3 | -12% | -6% |
| CCCCCCn1c(SCC(=O)OC)nc2c1c(=O)[nH]c(=O)n2C | 1% | i |
| C[C@@H]1CN([C@@H](C)CO)C(=O)CCCn2nncc2CO[C@H]1CN(C)S(=O)(=O)c1cccs1 | -5% | -20% |
| CC1=CC(C)=Nc2ccccc2N1 | 4% | -7% |
| COc1cc(-c2nc3ccc4ccccc4c3c3c2CCC3)ccc1O | -16% | -21% |
| COc1ccc(-c2nc(CN3CCCCC3CCc3ccccn3)c(C)o2)cc1 (stereo unspecified) | -7% | i |
| CC(C)(C)n1nc2c(c1NC(=O)c1cc3ccccc3o1)CSC2 | -7% | -15% |
| CCc1cc2c(-c3ccccc3)cc(=O)oc2c2c1OCN(Cc1ccc(F)cc1)C2 | -9% | -6% |
| O=c1nc(-c2ccccc2)n(-c2ccc(Cl)cc2)[nH]1 | -4% | -10% |
| COc1ccccc1NC(=O)C1CCN(C(=O)c2ccc(C(C)(C)C)cc2)CC1 | ? | 0% |
| CCOc1ccc(-n2c(=S)sc3c(=O)[nH]c(SCC(=O)C(C)(C)C)nc32)cc1 | -15% | i |
| COc1cc(C2NC(=O)NC(c3ccccc3)=C2C(C)=O)ccc1OCC(=O)O (stereo unspecified) | -6% | -8% |
| OCCSc1nc2ccccc2n1CCOc1ccccc1 | -15% | i |
| O=C(c1ccc(F)cc1F)N1CCN(c2ncccn2)CC1 | -10% | i |
| COc1ccc(NC(=O)CN(C)C(=O)c2ccc(-c3ccccc3Cl)o2)cc1 | -4% | -36% |
| COc1ccc(C2/C(=C(/O)c3ccc(F)cc3)C(=O)C(=O)N2CCCN(C)C)cc1 (stereo unspecified) | -3% | -3% |
| Cc1ccc(Cl)cc1NC(=O)NC1COc2ccccc2C1 (stereo unspecified) | -20% | -12% |
| O=C(Nc1nc(-c2ccccc2)cs1)C1CCCO1 (stereo unspecified) | -10% | i |
| O=C(NCc1nnc(SCc2ccc(C(F)(F)F)cc2)n1-c1ccccc1)C12CC3CC(CC(C3)C1)C2 | -19% | -15% |
| CCOc1ccccc1NC(=O)Nc1cc(C(=O)O)ccc1C | 3% | -3% |
| COc1ccc(Cl)cc1NC(=O)c1c(NCc2cccs2)sc2c1CCCC2 | -12%[7.34 µM] | -14%[7.34 µM] |
| COc1cccc(C(NC(C)=O)c2nc(-c3cnn(C)c3)cs2)c1 (stereo unspecified) | 13% | -7% |
| CCN1CCN(c2ncc3c(n2)CCN(Cc2cc(Br)cs2)C3)CC1 | -16% | -17% |
| O=C(CN1Cc2ccccc2OC(c2ccsc2)C1)NCc1ccc2c(c1)OCO2 (stereo unspecified) | -5% | -14% |
| Cc1ccc(NC2=C/C(=N\S(=O)(=O)c3cccs3)c3ccccc3C2=O)c(C)c1 | 6.3µM* | 10µM* |
| Cc1sc2nc(Cc3ccccc3)[nH]c(=O)c2c1-c1ccccc1 | -7% | -16% |
| CC(=O)Nc1ccc(S(=O)(=O)NCC(=O)NNC(=O)COc2c(C)cccc2C)cc1 | -9% | -10% |
| CC1(c2nnc(-c3cccc(Cl)c3)o2)CC(c2ccc(C#N)cc2)=NO1 (stereo unspecified) | -9% | i |
| O=C(NCc1ccccc1)C1CCN(S(=O)(=O)c2ccc3[nH]c(=O)ccc3c2)CC1 | 4% | 7% |
| O=C(Nc1cc(Br)ccc1F)c1nc[nH]c1C(=O)NCc1ccccc1 | -14% | -10% |
| Nc1sc(-c2ccccc2)cc1-c1n[nH]c(=S)n1C1CCCCC1 | -25% | i |
| COCc1nnc(NC(=O)CCCOc2ccccc2OC)s1 | -7% | -15% |
| COc1ccc(C(=O)NCC(=O)N/N=C/c2ccco2)cc1OC | 5% | -8% |
| CCN(C(=O)Cn1ncc2c(=O)oc3ccccc3c21)c1ccccc1F | 1% | -9% |
| CCCS(=O)(=O)N1CCCC(C(=O)Oc2ccccc2Cl)C1 (stereo unspecified) | -8% | i |
| COc1ccc(/C(C)=N/Nc2ccc(C(=O)O)cc2)cc1OC | -9% | -11% |
| COc1ccc(C2CC(c3ccccc3)=NN2C(=O)CSc2ncccn2)cc1 (stereo unspecified) | -6% | -22% |
| COc1ccc(C2=NS(=O)(=O)N(C)C(C(=O)N(C)Cc3ccccc3)=C2)cc1 | -8% | -15% |
| O=C(O)C1(C(=O)O)CCCC1 | -8% | i |
| C/C(=N/NS(=O)(=O)c1ccc(C(C)(C)C)cc1)c1ccc2c(c1)OCO2 | -9% | -20% |
| CCCCCCCCCCCCCCC(F)C(=O)O (stereo unspecified) | -3%[3.33 µM] | -5%[3.33 µM] |
| Cc1cc(C)nc(SCc2ccc3nonc3c2)n1 | -3% | -1% |
| N#Cc1c(N)n(CCCN2CCOCC2)c2nc3ccccc3nc12 | ? | -8% |
| CC(Nc1ccnc2cc(Cl)ccc12)c1ccc(S(N)(=O)=O)cc1 (stereo unspecified) | -8% | -15% |
| Cc1ccc(NC(=O)CCC(=O)NNC(=O)COc2ccccc2)cc1C | -18% | i |
| Cc1ccc(S(=O)(=O)N2CCNC(=O)C2)c(C)c1 | -18% | -21% |
| Cc1cc(NC2CCCCC2)n2c(n1)nc1ccccc12 | -2% | i |
| Cc1ccc2nc3c(cc(C(=O)NCC4CCCO4)c(=N)n3C(C)C)c(=O)n2c1 (stereo unspecified) | 0% | -16% |

Exported with two lines to a compound: part of the list above
Value order: Vaccinia Venus | VACV mCherry inh
O=C(c1c(F)c(F)c(F)c(F)c1F)N1CCc2ccccc21
    ? | -8%
CCCS(=O)(=O)N1CCCC(C(=O)Oc2ccccc2Cl)C1 (stereo unspecified)
    -8% | i
COc1cc2cnc(-c3ccccc3)c(-c3ccc(C(F)(F)F)cc3)c2cc1OC
    -9% | -4%
C/C(=N/NS(=O)(=O)c1ccc(C(C)(C)C)cc1)c1ccc2c(c1)OCO2
    -9% | -20%
CC1(C(=O)NCc2ccccc2)CCC(=O)N1CC(F)(F)F (stereo unspecified)
    4% | 7%
